CapD inh = inhibitors of Bacillus anthracis CapD enzyme | purified CapD enzyme, fluorescence intensity read-out; stronger effect = lower value; some hits fall short of the stated cut | AID 492967 | z-score (no concentration beside the values) | 0.23% of 140,000 active;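 active = z-score under -4 in either of two replicates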;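 note: stock transfer was 100 nL into about 40 µL; score is relative to mean and spread of the plate; one replicate is shown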
AID504770 = growth inhibitors of E. coli YBA685 in a screen for V. cholerae RctB (chromosome II replication) inhibitors; E. coli YBA685 rctB-dependent plasmid, OD600 growth, 3 h; stronger effect = lower value; z-score (no concentration beside the values); 0.27% of 130,000 active;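 active = z-score under -2 on both plates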;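 note: wells of about 30 µL received 100 nL stock; score is relative to mean and SD of the test wells; the first replicate is given; strong numbers were not always called active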
Starred values were filed as active, the others as inactive; x = no result given; & = joins results of further samples.

SMILES | CapD inh | AID504770
O=C1c2ccccc2S(=O)(=O)N1Cc1cccc2ccccc12 | -0.315 | -0.35
CN(CC(=O)Nc1ccc(F)c(F)c1F)C(=O)C1CCCCC1 | x | -1.2
CC1(C(=O)C[n+]2cccc(C(N)=O)c2)CCC(=O)O1 (stereo not drawn) | x | -0.95
N#CCCn1cc(/C=c2\sc3nc4ccccc4n3c2=O)c(-c2ccc(F)cc2)n1 | x | 0.1
CCCCc1c(COC)[nH]c(=O)[nH]c1=O | 1.34 | 1.15
O=C(Nc1ccccc1)N1CCC(N(C2CC2)S(=O)(=O)c2cccc(C(F)(F)F)c2)CC1 | -0.56 | x
C1=CC(c2cccs2)CC1 (stereo not drawn) | 0.345 | 0.95
CC(C)Nc1nc(-c2cccs2)cc(C(F)(F)F)c1C#N | 59 | 0.15
C(=N/n1cnnc1)/c1cccc2c1OCCCO2 | 5.76 | -0.65
Cc1cc(-c2nnc(-c3cccc(C(F)(F)F)c3)o2)no1 | 10.3 | -0.9
CC1CCCC(NC(=O)c2cccc3c2SCCC3=O)C1C (stereo not drawn) | 0.01 | 0.95
CCCN(CCC)Cc1ccc(CNc2nc(-c3ccc(OC)cc3)no2)o1 | 0.465 | -0.65
CN1CCc2cc3c(c4c2C1Cc1ccccc1-4)OCO3 (stereo not drawn) | x | -0.1
CN1C(=O)/C(=c2\sc3nc4ccccc4n3c2=O)c2ccccc21 | 0.225 | -0.2
CCOC(=O)c1sc2cccc(Cl)c2c1N | 48 | 0.35

Reformatted with tabs: 2 of the compounds above
mol	CapD inh	AID504770
CC1(C(=O)C[n+]2cccc(C(N)=O)c2)CCC(=O)O1 (stereo not drawn)	x	-0.95
N#CCCn1cc(/C=c2\sc3nc4ccccc4n3c2=O)c(-c2ccc(F)cc2)n1	x	0.1

Other records.
SMILES | CapD inh | AID504770
Cc1cc2n(n1)C(c1cccc(O)c1O)Nc1c(C)cccc1-2 (stereo not drawn) | 0.355 | 0.6
C=CC1CCC(O)C(N(C)C(=S)Nc2ccccc2)C1 (stereo not drawn) | 3.87 | 0.3
Cn1c(/C(C#N)=C/C2CC=CCC2)nc2ccccc21 (stereo not drawn) | x | -0.15
N#CCCS(=O)(=O)c1ccc(-c2ccc(S(=O)(=O)CCC#N)cc2)cc1 | -0.06 | -0.55
CCCCCCCCCCCCCCCC[n+]1ccccc1 | 1.14 | -0.35
c1ccc(CN2CCN(C3CCNCC3)CC2)cc1 | x | 2
Cn1cnnc1SCc1c(Cl)cccc1Cl | 0.55 | 0.75
Cc1sc2nc(CN3CCCCC3)nc(Cl)c2c1C | x | 1
N#CC12c3ccccc3C(c3ccccc31)C1C(=O)N(Cc3ccccc3)C(=O)C12 (stereo not drawn) | -0.245 | x
O=C1N=c2ccccc2=C1c1sc(=S)n(-c2ccccc2)c1O | 0.25 | 1.1
CCN(C(=O)CCn1c(=O)sc2ccccc21)c1ccccc1 | -0.05 | 0.2
CC1CCc2c(sc(N)c2C(=O)OC(C)C)C1 (stereo not drawn) | -0.485 | -1.25
O=C(O)c1cc(-c2ccc3c(c2)OCO3)on1 | x | -0.45
CC(=O)n1ccc(C(=O)Nc2ccc(Cl)c(Cl)c2)n1 | 0.365 | 0.45
CC(C)c1ccc(-c2nc(N3CCCCCC3)[nH]c(=O)c2C#N)cc1 | 0.7 | 0.35
Cc1cc(C(=O)NC2CCCC(C)C2C)n(-c2ccccc2)n1 (stereo not drawn) | -4.11 | -0.5
O=C(O)c1ccc2n[nH]nc2c1 | -0.69 | x
O=C(C1=NN(C2CCS(=O)(=O)C2)C(=O)CC1)N1CCc2ccccc2C1 (stereo not drawn) | x | 0.5
O=C(NNC(=O)c1csc(-c2ccccc2)n1)OCCCCc1ccc([N+](=O)[O-])cc1 | -0.805 | x
CCC(C(=O)O)n1nnc(-c2ccc(Cl)cc2)n1 (stereo not drawn) | x | -0.2
Cc1cc(C)nc(SCC(=O)N(c2ccc(Cl)cc2)C(C)C)n1 | -0.46 | x
Cc1nc(SCC(=O)c2ccc3[nH]c(=O)[nH]c3c2)c2ccccc2n1 | x | 0.05
Cc1noc(C)c1COC(=O)C(C)N1C(=O)c2ccccc2C1=O (stereo not drawn) | x | 0.85
CCOc1ccc(S(N)(=O)=O)cc1OCC | x | 0
C#CCSc1ccccc1C(=O)O | x | 0.95
CCN1C(=O)/C(=C/N(C(C)=O)c2ccccc2)SC1=S | 0.9 | -0.1
CCN(CC)CCCC(C)NS(=O)(=O)c1cc(C)ccc1OC (stereo not drawn) | -0.03 | x
COc1ccc(C=NCc2ccc(OC)c(OC)c2)cc1OC | 1.02 | -0.05
Cc1cn(C(=O)c2ccccc2)c(=O)[nH]c1=O | x | -0.65
CC(C)(C)C(=O)CON1C(=O)c2ccccc2C1=O | -0.265 | 1.1
Cn1c2ccccc2n2c(C(=S)Nc3ccccc3)c(-c3ccccc3)nc12 | 0.75 | 1
COCCCn1c(SCC(=O)N(Cc2ccco2)c2nccs2)nc2sc3c(c2c1=O)CCC3 | x | -0.55
COc1ccc(OCCNC(=O)N2CCOCC2)cc1 | 0.205 | 0
CC(=O)NC(CC(=O)O)c1ccc(F)cc1 (stereo not drawn) | x | -0.9
NS(=O)(=O)c1ccc(Br)s1 | 0.245 | x
CC(C)C1=CC23CCC4C(C)(C(=O)O)CCCC4(C)C2CC1C1C(=O)N(CCO)C(=O)C13 (stereo not drawn) | -0.43 | x
Cc1cc(C(=O)COC(=O)Cn2cnnn2)c(C)n1CC1COc2ccccc2O1 (stereo not drawn) | x | -0.25
Cc1ccc(Nc2cc(-c3ccccc3)nc3ncnn23)cc1 | 3.49 | -0.35
COc1ccc(-c2cn3c(C)c(C(=O)N4CCN(c5ccccc5)CC4)sc3n2)cc1 | 0.185 | -1.6
Cn1c(C(C#N)C(=O)c2cccc(N3C(=O)c4ccccc4C3=O)c2)nc2ccccc21 (stereo not drawn) | x | -0.15
Cc1ccc(NC(=O)NC(=O)CSc2nnc(Cc3csc(C)n3)o2)c(C)c1 | x | -0.15
CC(C)(Oc1ccc(Cl)cc1)C(=O)Nc1nccs1 | 0.05 | -2.6
CS(=O)(=O)Nc1cccc(C(F)(F)F)c1 | 0.375 | -0.75
COc1ccc(NC(=O)N2CCN(C(=O)C(Cc3ccc(F)cc3)NC(C)=O)CC2)cc1 (stereo not drawn) | x | 0.05
O=C(CNc1ccc(C(=O)O)cc1)NCc1ccc2c(c1)OCO2 | 3.21 | -1.2
CSc1ccc(C(=O)NN2C(=O)C3CC=CCC3C2=O)cc1 (stereo not drawn) | 0.73 | x
Cc1cc(NC(=O)CNCc2ccccc2)n(-c2nc3ccccc3s2)n1 | x | 0.5
NC(=O)COC(=O)c1cccc2c1-c1ccccc1C2=O | x | 0.2
OCC1(CO)CSC(Nc2ccc(I)cc2)=N1 | -0.38 | x
COc1ccc(S(=O)(=O)N(CCC#N)CC2CCCO2)cc1 (stereo not drawn) | 0.5 | x
COc1cc(S(=O)(=O)n2nnc3ccccc32)c(OC)cc1C | -2.33 | 2.4
CC(C)c1nnc(NC(=O)CSc2nc(-c3ccccc3)cc(=O)[nH]2)s1 | x | -0.4
N#Cc1ccccc1Sc1ccccc1C(=O)Nc1cc(Cl)ccc1-n1cncn1 | x | -0.85
COC(=O)c1ccc(C2C(C#N)=C(N)Oc3n[nH]c(-c4ccc5ccccc5c4)c32)cc1 (stereo not drawn) | 0.295 | x
COc1ccc(-c2noc(CCCC(=O)NC(C)C)n2)cc1 | 0.705 | 0.05
Clc1ccc(-c2noc3ncnc(N4CCc5ccccc54)c23)cc1 | 0.15 | 0.9
CC1=C(C(=O)OCCOc2ccccc2)C(c2cc3c(cc2Br)OCO3)NC(=O)N1C (stereo not drawn) | 0.05 | x
COc1ccc(CN(C)Cc2cccc(S(=O)(=O)N(C)C)c2)c(OC)c1OC | x | -0.75
CCN(CC)c1ccc2cc(-c3nc(-c4ccc(Br)cc4)cs3)c(=Nc3cccc(Br)c3)oc2c1 | -0.055 | x
C=CCn1c(SC/C(O)=C(\C#N)c2nc3ccccc3[nH]2)nc2ccccc2c1=O | x | 1.3

Reformatted: entries from further up.
Sequence of screens – CapD inh	AID504770
> COc1cc(S(=O)(=O)n2nnc3ccccc32)c(OC)cc1C
→ -2.33	2.4
> CC(C)c1nnc(NC(=O)CSc2nc(-c3ccccc3)cc(=O)[nH]2)s1
→ x	-0.4
> N#Cc1ccccc1Sc1ccccc1C(=O)Nc1cc(Cl)ccc1-n1cncn1
→ x	-0.85
> COC(=O)c1ccc(C2C(C#N)=C(N)Oc3n[nH]c(-c4ccc5ccccc5c4)c32)cc1 (stereo not drawn)
→ 0.295	x
> COc1ccc(-c2noc(CCCC(=O)NC(C)C)n2)cc1
→ 0.705	0.05
> Clc1ccc(-c2noc3ncnc(N4CCc5ccccc54)c23)cc1
→ 0.15	0.9
> CC1=C(C(=O)OCCOc2ccccc2)C(c2cc3c(cc2Br)OCO3)NC(=O)N1C (stereo not drawn)
→ 0.05	x

The results go on:
SMILES | CapD inh | AID504770
CC(=O)OC1CCC2CC1CCC2OC(C)=O (stereo not drawn) | -0.095 | -0.7
O=C(c1ccccc1)n1nc(-c2ccccc2)nc1NCc1ccco1 | 2.38 | -0.5
CNC(=O)CC1SC(N)=NC1=O (stereo not drawn) | -0.59 | -0.6
CC(=O)NC1(c2nnnn2-c2cccc(Cl)c2)CCCCC1 | -0.285 | x
N#Cc1cc(F)c(N2CCNCC2)cc1Cl | x | -0.7
Nc1nc(O)c(C2=c3cc(Br)ccc3=NC2=O)s1 | -0.12 | 1.3
O=C(CSCCS(=O)(=O)c1ccccc1)N/N=C/c1ccsc1 | -0.125 | x
C=CCN1C(=O)C(O)(c2cnc(N)s2)c2ccccc21 (stereo not drawn) | x | -0.05
CCCCNC(=O)c1sc2ncnc(N3CCc4ccccc4C3)c2c1C | 0.485 | x
O=C(c1ccco1)N1CCN=C1SCc1ccccc1 | x | 0
Cc1nn(Cc2nnn(CC(=O)NNC(=O)CNC(=O)c3cccnc3)n2)c(C)c1Br | 0.105&-0.21 | x
COc1ccc(-n2c(SCCNCCO)nc3ccccc32)cc1 | x | -0.7
CC(=O)Nc1ccc(S(=O)(=O)Nc2nccc(C3Cc4ccccc4C(=O)O3)n2)cc1 (stereo not drawn) | 0.13 | 0.55
COc1cc(N)c(Cl)cc1C(=O)OCC(=O)N(C)c1ccccc1 | x | -0.3
COC(=O)c1ccc(-n2ccnc2)cc1 | -0.31 | 0.4
OCc1cccc2cccc(Br)c12 | 0.11 | x
O=C(Cc1c(F)cccc1Cl)N1CCC2(CC1)OCCO2 | 0.515 | -0.5
CSc1nc(N)nc(SC2C=CCCC2)c1C#N (stereo not drawn) | 0.165 | -0.6
CCC1(CC)Cc2ccccc2C(c2cc3ccccc3oc2=O)=N1 | -0.175 | 1.35
Cc1nc2ccccc2n1C(=O)CCC(=O)O | x | -0.25
COc1ccc(Cc2n[nH]c(=S)n2NC(=O)Nc2ccc(C)cc2)cc1 | x | 2.55
CC(=O)SCC(Cc1ccccc1)C(=O)NCC(=O)OCc1ccccc1 (stereo not drawn) | -0.26 | x
Cc1cc(C)c2cc(C(=O)N(Cc3ccccc3)Cc3ccccn3)[nH]c2c1 | 0.135 | 0.25
C#CCN(C)[C@H](C)Cc1ccccc1 | -0.19 | x
NNC(=O)c1ccc(Oc2cccc(C(F)(F)F)c2)nc1 | 0.325 | -0.1
N#C/C(=C1/NS(=O)(=O)c2ccccc21)c1nc2ccccc2[nH]1 | x | -0.85
Cn1c(N)c(C(=O)COC(=O)c2cc(S(=O)(=O)N3CCOCC3)ccc2F)c(=O)n(C)c1=O | x | 0.15
COC(=O)c1sccc1-c1ccc(COC(=O)Nc2ccccc2)o1 | 73 | x
CCOC(=O)c1c(C)n(C)c2c1cc(O)c1c2c(-c2ccccc2)nn1-c1ccccc1 | 11.4 | x
CN(C)/C=C/C(=O)c1cccc(C(F)(F)F)c1 | -1.84 | -0.6
O=C(CSc1ncn[nH]1)N1CCN(S(=O)(=O)c2ccccc2)CC1 | x | 0.4
CCc1ccccc1NC(=S)N(CCC(C)C)C(C)c1ccco1 (stereo not drawn) | 0.625 | -0.1
CC(C)Cc1cc(C(=O)NCc2ccco2)no1 | 0.32 | -0.45
CC(C)(C)N(Cc1ccccc1)C(=O)CCCN1C(=O)/C(=C/c2cccs2)SC1=S | 0.125 | 1.35
O=C(OC(c1ccco1)c1nccc2ccccc12)c1ccccc1 (stereo not drawn) | x | -0.3
CN1CCC(NCc2ccccc2Cl)CC1 | -0.61 | -0.15
Cc1ccc(N2CC(C(=O)N3CCCCC3)CC2=O)cc1 (stereo not drawn) | 0.145 | 0.3
COc1ccc(N=Cc2ccc(Cl)cc2)cc1OC | 1.21 | -0.2
O=C(c1cnc2n(c1=O)CCS2)N1CCN(C(c2ccccc2)c2ccc(Cl)cc2)CC1 (stereo not drawn) | x | -0.05
NC(=O)C1CCCN(S(=O)(=O)c2ccc(Cl)cc2)C1 (stereo not drawn) | 0.625 | 0.15
O=C(c1ccc2cc[nH]c2c1)N1CCN(C(=O)C(c2ccccc2)c2ccccc2)CC1 | 0.25 | x
CCn1c(C(=O)OC)cc2oc(C)cc21 | -0.11 | 0.05
COCCNC(=O)c1ccccc1NC(=O)c1ccc(F)cc1 | -0.39 | -0.55
Oc1ccccc1-c1nnc(-c2ccccc2)c(-c2ccccc2)n1 | x | -0.2

Arranged by count of non-hydrogen atoms (rising): five of the compounds above
SMILES | CapD inh | AID504770
Cc1ccc(N2CC(C(=O)N3CCCCC3)CC2=O)cc1 (stereo not drawn) | 0.145 | 0.3
COCCNC(=O)c1ccccc1NC(=O)c1ccc(F)cc1 | -0.39 | -0.55
O=C(CSc1ncn[nH]1)N1CCN(S(=O)(=O)c2ccccc2)CC1 | x | 0.4
Oc1ccccc1-c1nnc(-c2ccccc2)c(-c2ccccc2)n1 | x | -0.2
CC(C)(C)N(Cc1ccccc1)C(=O)CCCN1C(=O)/C(=C/c2cccs2)SC1=S | 0.125 | 1.35
